# Screening data (PubChem BioAssay)
# Vif A3G = inhibitors of Vif binding to APOBEC3G peptide, primary screen, biochemical, TR-FRET, GST-Vif 1-94, biotin-A3G peptide, dose response retest (AID 1117319); TR-FRET GST-Vif / biotin-A3G peptide binding; higher % means a stronger effect; test concentration not given here; strong numbers were not always called active; inhibition, %, or IC50 in µM where a hit was titrated; 260,000 tested, 0.57% active;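 active means above the screen mean plus three standard deviations and confirmed in dose response; inconclusive means results disagree or hit not tested in dose response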;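 further: Vif residues 1-94 fused to GST binding biotinylated APOBEC3G peptide 110-148; 0% = full assay without inhibitor and 100% = GST in place of GST-Vif; retest series ran down from 100 µM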
# LANA-H2A inh = blocks KSHV LANA binding to histone H2A/H2B; Q9QR71; cell-free LANA-H2A/H2B peptide, fluorescence polarization; inhibition, % (concentration not given with the values); 320,000 tested, 0.6% active; in the data active means inhibition mostly above about 10%, no sharp cut-off; inactive means mostly below about 6.7%;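 further: stock transfer was 7.5 nL into about 10 µL; 0% = median of vehicle wells and 100% = median of positive control wells; one replicate is shown; the record names a cut of 25% in any replicate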
# RanGTP-Impb inh = disruptors of Ran-importin-beta complex formation – biochemical, FRET, CFP-Ran, YFP-importin-beta, homogeneous, primary screen; inhibition, % (test concentration not listed); cell-free CFP-Ran/YFP-importin-beta FRET ratio; AID 2216; 300,000 tested, 1.1% active;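 active means most replicates above 15%; inconclusive means exactly half above 15%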;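 further: 0% = DMSO wells and 100% = Ran loaded with GDP instead of GTP; wells of about 40 µL received 100 nL stock; the first replicate is given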
# Bfl-1 A1 inh = inhibitors of the anti-apoptotic protein A1, read as caspase activation; MEF A1-2A-BIM cells, Caspase-Glo 3/7 luminescence, 3 h; percent of clofoctol response, vehicle zero; caspase activation, % (concentration not given with the values); AID 2462; 330,000 tested, 0.066% active;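 active means over half of replicate activation scores above 10%, or exactly half above 10 with the replicate mean above 10; inconclusive means replicate mean below 10 yet half the replicates above 10; inactive means over half of replicates below 10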;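 further: wells of about 30 µL received 50 nL stock; many hits fall short of the cut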
# Calb FLC = affects C. albicans growth with fluconazole; C. albicans CaCi-2 (fluconazole-resistant clinical isolate) + fluconazole, Alamar Blue growth, 48 h; 300,000 tested, 0.57% active; growth inhibition, % (concentration not given with the values);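 active means most replicates above 75%; inconclusive means exactly half above 75%; inactive means most below 75%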;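 further: all wells also contain fluconazole at 8 µg/ml as a sub-toxic cotreatment; 0% = median of DMSO wells and 100% = median of geldanamycin control wells; wells of about 8 µL received 7.5 nL stock; the first replicate is given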
# AF4-AF9 inh = MLL-AF4/AF9 protein interaction inhibition; P42568; AlphaScreen, biotin-AF4 peptide binding to FLAG-AF9; inhibition, % at 10 µM; 350,000 tested, 0.47% active;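 active means every replicate reaching a set inhibition limit, whatever the replicate mean, cut at about 25% in these data; inconclusive means mean inhibition reaches that limit but some replicates miss it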;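 further: 0% = plate neutral control median and 100% = total signal loss; the record names both 10 and 1 µM as test concentration; the first replicate is given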
# Target sequence (P42568 whole entry, looked up): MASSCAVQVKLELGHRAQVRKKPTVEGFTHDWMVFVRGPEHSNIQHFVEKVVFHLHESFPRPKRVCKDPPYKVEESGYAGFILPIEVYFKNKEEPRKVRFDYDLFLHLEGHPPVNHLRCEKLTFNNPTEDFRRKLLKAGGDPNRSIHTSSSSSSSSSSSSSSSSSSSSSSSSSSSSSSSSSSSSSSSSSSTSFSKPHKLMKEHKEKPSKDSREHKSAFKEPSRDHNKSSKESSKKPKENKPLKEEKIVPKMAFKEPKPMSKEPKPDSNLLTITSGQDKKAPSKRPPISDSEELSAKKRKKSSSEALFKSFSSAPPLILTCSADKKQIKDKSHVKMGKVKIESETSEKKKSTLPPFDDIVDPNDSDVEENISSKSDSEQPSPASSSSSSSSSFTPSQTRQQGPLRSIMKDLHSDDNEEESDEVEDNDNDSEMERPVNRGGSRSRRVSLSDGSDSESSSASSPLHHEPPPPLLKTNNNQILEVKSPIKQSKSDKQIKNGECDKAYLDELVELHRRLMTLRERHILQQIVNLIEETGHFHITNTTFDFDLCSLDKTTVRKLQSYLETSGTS
# Beta cell apopt = blocks beta cell apoptosis; INS-1E cytokine-induced death, ATP luminescence, 48 h; percent of positive-control rescue, neutral wells zero; protection from apoptosis, % (test concentration not listed); 300,000 tested, 0.8% active; AID 435005;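 active means all replicates at 75% or more, or half of them and the mean; inconclusive means half reach 75% but not the mean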;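 further: 0% = cytokine-treated negative control wells and 100% = positive control rescue; higher means more ATP so stronger rescue from cytokine killing; wells of about 40 µL received 100 nL stock; the first replicate is given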
# T cruzi repl = blocks replication of Trypanosoma cruzi; T. cruzi beta-gal in NIH3T3, luminescence, 90 h; inhibition, % (concentration not given with the values); 300,000 tested, 1.4% active;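 active means mean inhibition across valid replicates above about 55%, limit read from the data; inconclusive means mean below that limit but half or more replicates reach it; inactive means mean below it, under half of replicates reach it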;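 further: signal also drops with host cell toxicity which is not excluded here; 0% = plate median of DMSO wells and 100% = zero luminescence signal; higher percent means less beta-gal luminescence so fewer parasites; stock transfer was 50 nL into about 50 µL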
# Starred values were filed as active, the others as inactive; ? = inconclusive; · = no result given. Hits appear at their usual frequency. Share with any hit: about 4.3%.
SMILES,Vif A3G,LANA-H2A inh,RanGTP-Impb inh,Bfl-1 A1 inh,Calb FLC,AF4-AF9 inh,Beta cell apopt,T cruzi repl
O=C(NCCC1=CCCCC1)C1CC(=O)N(Cc2ccccc2)C1 (stereo not given),·,-1.2,?,-0.1,1,5.4,0,-8
O=C(C[n+]1cccc(NC(=O)c2ccccc2)c1)c1ccccc1,0%,-3.7,1.2,1.1,-16,·,-4,1
COCCOc1ccc(C(F)(F)F)cc1NC(=O)COC(=O)c1ccc(N2CCCC2=O)cc1,-4%,-0.8,·,-0.2,·,0.0,5,·
CCC(Sc1nc(C)cc(=O)[nH]1)C(=O)Nc1sc2c(c1C#N)CCCC2 (stereo not given),2%,-0.2,0.4,1.1,15,-3.7,-25,-18
O=C(CSc1nnc(Cc2ccccc2)n1-c1ccc(Cl)cc1)N1CCOCC1,2%,-0.1,2.3,0.0,5,·,-4,16
CCN(C(=O)c1ccc(S(=O)(=O)N2CCCCC2)cc1)C1CCS(=O)(=O)C1 (stereo not given),2%,4.2,?,0.1,2,-0.2,-5,5
CCOC(=O)c1ccc(NC(=O)CCOc2ccc(C)cc2)cc1,-6%,-2.5,1.9,0.3,30,·,-1,6
COc1ccccc1N=Cc1c(C)c(C#N)c2[nH]c3ccccc3n2c1=O,-1%,3.2,2.1,-0.2,7,-7.0,-1,-11
Cc1cccc(CSC2=NCCN2C(=O)C2CC2)c1,1%,-2.0,2.4,1.8,-35,·,4,-6
CC(C)c1ccccc1-n1c(SCC(=O)c2ccc3c(c2)NC(=O)CO3)nc2ccccc2c1=O,4%,-3.5,3.3,1.6,4,2.1,18,?
O=C(OC(C(=O)NC1CCCCC1)c1ccccn1)c1cccs1 (stereo not given),-6%,-6.7,4.1,1.4,-3,·,-1,-11
COC(=O)c1cc(S(=O)(=O)Nc2cccc(C)c2C)cn1C,·,2.3,-3.3,-0.3,3,-5.0,-6,-6
CCOC(=O)c1c(NC(=S)Nc2cc([N+](=O)[O-])ccc2OC)sc2c1CCCCC2,·,2.0,5.8,0.4,4,·,-3,6
COc1ccc(C(=O)Nc2ccc(C(=O)N3CCC(C)CC3)cc2)cc1OC,·,-7.1,-1.5,-1.7,-4,0.4,·,6
O=C(NCC1CCCO1)c1cc2ccccc2nc1Cl (stereo not given),5%,-0.3,7.3,0.5,3,-5.5,-1,-1
COc1ccc(-c2cc(C(F)F)n3ncc(C(=O)Nc4ccc(C(=O)N5CCOCC5)cc4)c3n2)cc1,15%,9.3,1.7,-0.1,12,-0.7,16,52
CC1CN(C(=O)c2cc3cc([N+](=O)[O-])ccc3oc2=O)CC(C)O1 (stereo not given),9%,-14,4.8,0.7,4,-4.5,-1,-8
CCCCCCCCCC(=O)Nc1cccnc1,5%,8.8,2.1,-0.3,-23,·,-7,-1
Cc1ccc(S(=O)(=O)c2ccc(-n3nc(C)cc3N)cc2)cc1,-2%,-3.7,1.4,-0.5,-10,1.7,0,2
CC(=O)c1ccc(OCCCC(=O)N2CCN(S(=O)(=O)c3cc(C)ccc3C)CC2)cc1,-2%,4.1,1.3,1.2,-2,0.3,-2,9
Cc1ccc(S(=O)(=O)NCCC(=O)OCC(=O)N2CCCC2=O)cc1,11%,1.9,?,-0.4,3,-15,-4,-21
COc1ccc(S(=O)(=O)N2CCOCC2)cc1NC(=O)COC(=O)c1ccc([N+](=O)[O-])s1,-3%,-0.9,·,1.7,·,·,-4,·
O=C(COc1ccc(Cl)cc1Cl)Nc1nnc(C2=COCCO2)o1,-3%,2.5,0.2,-0.1,21,0.6,-5,-20
COC(=O)c1cc(C(=O)OCC(=O)NC2CCCC2)cc([N+](=O)[O-])c1,-11%,1.8,?,-0.7,-8,2.4,0,-11
COc1cc(C(=O)COC(=O)c2cccs2)cc(OC)c1OC,-5%,8.0,·,0.3,·,-1.6,-3,·
# Going on with the list:
SMILES,Vif A3G,LANA-H2A inh,RanGTP-Impb inh,Bfl-1 A1 inh,Calb FLC,AF4-AF9 inh,Beta cell apopt,T cruzi repl
N/C(=N\OC(=O)c1cccc(F)c1)c1ccccn1,·,-4.4,0.9,-0.4,10,1.2,8,-23
O=C(O)CCNC(=O)c1ccccc1,?,-1.8,?,0.1,·,-1.9,1,14
COc1ccc(NC(=O)n2ncc3c(C)cccc32)cc1OC,0%,-1.1,6.0,-0.3,13,-2.8,-6,2
COC(=O)c1ccc(NS(=O)(=O)c2ccc3[nH]c(=O)oc3c2)cc1,·,1.8,-1.7,0.3,0,-1.2,-8,-3
COc1ccc(OC)c(CNC(=O)C2CCN(S(=O)(=O)N3CCCC3)CC2)c1,17%,-2.0,4.8,0.2,-4,11,0,-2
N=C1C(c2nc3ccccc3[nH]2)=C(O)CN1c1ccc(F)cc1,15%,2.4,2.4,-0.3,-9,·,-7,-8
COCCCNC(=S)NNC(=O)c1csc(C)n1,-8%,-12,0.8,0.5,-10,5.0,-7,-21
O=C(NCCN1CCOCC1)C(Sc1ccccc1)c1ccccc1 (stereo not given),-7%,2.6,-5.3,0.2,12,·,-2,4
Cc1ccc(-c2noc(-c3ccccc3F)n2)cc1,0%,-4.2,0.9,-8.0,-10,2.1,-1,-15
CCc1cccc(NS(=O)(=O)c2ccc3c(c2)NC(=O)CC(=O)N3)c1,·,0.5,8.8,-0.8,1,-0.1,-3,-16
CSc1nc(C)cc(SCCO)n1,7%,-3.5,4.6,1.1,4,·,5,-10
O=C(N=C1SC2CS(=O)(=O)CC2N1c1ccc(Cl)c(Cl)c1)C1CCCO1 (stereo not given),4%,4.3,0.8,0.5,-5,-4.7,5,-26
COc1cc(OC)cc(C(=O)NCC(=O)OC2CCCCC2=O)c1 (stereo not given),-2%,2.9,·,0.0,·,-4.9,-5,·
CC(=O)Nc1ccc(NC(=O)CSC2=NS(=O)(=O)c3ccccc3N2)cc1,1%,·,1.4,-0.1,-2,-1.0,-5,0
COc1ccc(NC(=O)CN(C)CC(=O)NCc2ccc(C)cc2)cc1,-4%,4.6,·,-0.6,·,-3.6,1,·
COc1ccc(NC(=O)c2cc(S(=O)(=O)N3CCCCC3)c[nH]2)c(OC)c1,·,3.0,-1.7,-0.1,8,1.2,-7,-8
O=c1cc(-c2ccc(O)cc2)oc2ccc3ccccc3c12,·,-7.3,·,-8.5,·,2.0,45,·
COc1ccc(OC)c(COC(=O)c2cc([N+](=O)[O-])ccc2N2CCOCC2)c1,·,-15,·,-1.0,·,3.2,4,·
COc1ccccc1C(=O)NCCC(=O)N(C)Cc1ccc(C)o1,-1%,-1.4,2.9,-0.1,1,1.5,-9,3
O=C(CCCn1c(=O)c2ccccc2n(Cc2cccc(F)c2)c1=O)NC1CCN(Cc2ccccc2)CC1,-7%,-1.9,-0.8,-0.3,-5,1.2,8,31
Cc1cc(-c2ccccc2)c(C#N)c(=S)[nH]1,-10%,·,0.5,-0.1,7,-4.7,2,-10
O=C(Cc1ccccc1Cl)Nc1cccc(S(=O)(=O)N2CCCCCC2)c1,-8%,-172,·,0.3,·,-1.4,-4,·
Cc1ccc(C(=O)Nc2ccc3c(c2)ncn3C)cc1,0%,2.1,-4.9,-0.4,-5,·,-1,-10
COc1cc(S(=O)(=O)N2CCCN(C)CC2)ccc1NC(C)=O,·,6.8,-0.1,0.3,2,-2.3,4,-19
CCOc1ccc(S(=O)(=O)NCCC(=O)Nc2ccncc2)cc1,5%,0.7,6.3,-0.8,-2,-0.2,·,2
# Later entries:
SMILES,Vif A3G,LANA-H2A inh,RanGTP-Impb inh,Bfl-1 A1 inh,Calb FLC,AF4-AF9 inh,Beta cell apopt,T cruzi repl
CCN(C(=O)COC(=O)c1ccc(N2C(=O)c3ccccc3C2=O)cc1)C1CCS(=O)(=O)C1 (stereo not given),10%,-1.4,0.7,-1.0,11,-2.4,-2,-21
O=C(NC1(C(F)(F)F)NC(=O)N(Cc2cccnc2)C1=O)c1cccs1 (stereo not given),0%,-2.9,6.6,-0.6,-4,·,2,-13
CCNc1nc(SC(C)C(=O)Nc2ccccc2)nc(N(C)C)n1 (stereo not given),4%,-2.6,2.1,-0.3,-6,-0.7,2,-8
CC(=O)Nc1ccc(OCC(O)CN2CCN(Cc3ccccc3)CC2)cc1 (stereo not given),-5%,2.0,2.3,0.0,1,4.4,-2,28
O=C(NC(=S)N1CCCCC1CO)C12CC3CC(CC(C3)C1)C2 (stereo not given),-2%,4.5,-1.7,0.7,-5,7.9,-2,-6
COc1ccc(-c2nnc(-c3ccc(N(C)C)cc3)o2)cc1,-1%,2.1,-3.3,1.5,-6,·,-1,19
CC(=O)c1cccc(NC(=O)NCCS(C)=O)c1 (stereo not given),67%,1.3,2.0,-0.1,-2,8.0,-3,-14
COc1cc(NC(=O)c2ccc(-c3csc(C)n3)cc2)c(OC)cc1Cl,-4%,2.6,1.5,-0.3,2,3.8,-2,-6
COc1ccc(C(=O)NC(=S)Nc2nc(-c3ccc(OC)c(Br)c3)cs2)cc1Br,·,-3.1,-1.3,-0.2,·,-1.0,19,26
CNC(=S)Nc1sc2c(c1C(=O)OC)CCC2,-6%,-4.7,0.3,0.4,33,-2.1,-1,-9
Cc1c(CNCCc2ccc(Cl)cc2)c(C(=O)O)c(C)n1Cc1ccccc1,22%,-2.5,1.4,2.7,-11,1.9,-4,4
COC(=O)c1sccc1NC(=O)c1ccncc1,10%,5.1,3.0,0.4,6,·,1,-1
Cc1ccc(S(=O)(=O)N[C@H](C(=O)OCn2nnc3ccccc3c2=O)C(C)C)cc1,-2%,0.7,-2.9,2.0,?,·,-10,-16
Cc1ccc(-c2cc(C(=O)N3CCCC3)no2)cc1,3%,11,-1.5,-7.3,1,·,-1,7
COc1ccc(OC)c(NC(=O)C2CC2c2ccccc2)c1 (stereo not given),-9%,2.5,-1.6,0.1,-6,6.4,-1,1
COc1ccccc1CNC(=O)C(NC(=O)c1ccccc1C)C(C)C (stereo not given),-1%,0.9,-0.1,1.8,-3,-1.9,1,17
C=CCOc1ccc(C=Nc2ccc(OC)cc2)c(O)c1,0%,-2.2,?,0.2,2,1.6,-1,-28
COc1ccc(C(=O)C(C)OC(=O)c2cccc(S(=O)(=O)Nc3c(C)n(C)n(-c4ccccc4)c3=O)c2)cc1 (stereo not given),0%,-3.7,·,1.9,·,-16,-21,·

# Compound profiles, from the list above. Screens in order: Vif A3G | LANA-H2A inh | RanGTP-Impb inh | Bfl-1 A1 inh | Calb FLC | AF4-AF9 inh | Beta cell apopt | T cruzi repl
# Cc1ccc(-c2noc(-c3ccccc3F)n2)cc1 is listed as 0% | -4.2 | 0.9 | -8.0 | -10 | 2.1 | -1 | -15
# CSc1nc(C)cc(SCCO)n1 is listed as 7% | -3.5 | 4.6 | 1.1 | 4 | · | 5 | -10
# COc1ccc(OC)c(NC(=O)C2CC2c2ccccc2)c1 (stereo not given) is listed as -9% | 2.5 | -1.6 | 0.1 | -6 | 6.4 | -1 | 1
# Cc1c(CNCCc2ccc(Cl)cc2)c(C(=O)O)c(C)n1Cc1ccccc1 is listed as 22% | -2.5 | 1.4 | 2.7 | -11 | 1.9 | -4 | 4
# O=C(NCCN1CCOCC1)C(Sc1ccccc1)c1ccccc1 (stereo not given) is listed as -7% | 2.6 | -5.3 | 0.2 | 12 | · | -2 | 4
